# gsp antagonist: antagonists of gsp mutant (McCune-Albright syndrome); gsp-mutant cells, cAMP HTRF, 30 min; control for the full effect not named in the record; Potency, µM (top dose mostly 76.9 µM), without a hit: at the top dose activity change, negative = inhibition, hits mostly inhibitors; hit rate 0.4% among 340,000; active = falling curve of any shape with a large fitted effect; inconclusive = falling curve, mostly with a smaller effect; inactive = flat or rising curve; cell line not stated here;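 note: intracellular cAMP measured with PDE inhibitor Ro 20-1724 present during compound exposure; potency is the fitted concentration of half-maximal effect; % is set by controls: 0 for no effect and ±100 for the full control effect; nearly all actives have a fitted effect of over 65% in size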
#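 HTRF cAMP measurement after 30 min RT detection following 30 min, 37C compound treatment alongside […] (added as 300 uM solution) in G418-selected cells seeded at 2000/well and grown 16–24 h.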
# Menin-MLL FL inh: menin-MLL binding inhibition, fluorescein peptide. Fluorescence polarization, fluorescein-MLL peptide displacement from menin. FP activity change, % at 61.4 µM. 290,000 tested, under 10 active; inconclusive = falling polarisation curve, or a change in total fluorescence; inactive = total fluorescence flat and polarisation flat or rising; no compound was filed as active; the % refers to the polarisation; negative = inhibition;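 note: % of control where 0% means no effect; inhibitors lower the polarisation; unlabelled MLL peptide was the positive control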
# gsp agonist: gsp mutant agonism | gsp mutant cells, cAMP HTRF, 30 min; control for the full effect not named in the record | Potency, µM (highest dose often 76.9 µM), inactives show at the top dose activation (cAMP increase), most hits filed as activators | hit rate 0.13% among 340,000; active = well fitted activation curve with a large enough effect; inconclusive = small, poorly fitted or top-dose-only effect, or another doubt; inactive = no such curve, though single readings can be large or run the other way; cell line not stated here;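 note: phosphodiesterase inhibitor Ro 20-1724 added with compounds to block cAMP breakdown; potency is the fitted concentration of half-maximal effect; nearly all actives have a fitted effect of over 60% in size; about a fifth of the inactives were tested at one dose only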
#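 Cells in DMEM/10% FBS with G418 were pretreated with compounds in DMSO plus […] (300 uM stock) for 30 min at 37C. cAMP was measured by HTRF (cAMP-d2 plus anti-cAMP antibody-K) after 30 min at room temperature.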
# TRPML1 blocker: inhibitors of human TRPML1 channel; Q9GZU1; TRPML1-inducible cells, Ca2+ dye fluorescence, FDSS; stronger effect = lower value; inhibition of EC80 agonist-evoked calcium signal; activity change, negative = inhibition, % (no concentration beside the values); hit rate 0.02% among 390,000; in the data active means activity change below about -50%; inconclusive means about -30% to -50%; inactive means above about -30%;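 note: stimulus is agonist 54-4 at its EC80 concentration; % is set by controls: 0 for no effect and ±100 for the full control effect; compound concentration not given in the record; the text of the record puts the active cut at -80%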
#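 Calcium fluorescence in TRPML1-DL cells induced overnight with Tet: a 110 s read after compound pin addition, then a 110 s antagonist read after challenge with 54-4 at 4 uM final (EC80).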
# Sfp inh: Sfp phosphopantetheinyl transferase inhibition; Biochemical Sfp PPTase activity, qHTS; hit rate 3.5% among 310,000; Potency, µM, for inactives: max response, negative = inhibition, hits mostly inhibitors; active = well fitted inhibition curve with a large enough effect; inconclusive = small, poorly fitted or top-dose-only effect, or another doubt; inactive = no such curve, though single readings can be large or run the other way;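 note: the enzyme is Sfp with the accession as filed and its product quenches rhodamine fluorescence; potency is the fitted concentration of half-maximal effect; 0% = enzyme reaction without inhibitor and -100% = no enzyme wells; top concentration of the series not given in the record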
#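 Reaction rates are the 30-min fluorescence difference (ex 525, em 598 nm) in wells containing 15 nM Sfp, 5 uM rhodamine-CoA and 12.5 uM BHQ-2-YbbR at pH 7.6 with 10 mM MgCl2.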
# ClpP mod: qHTS Assay for Activators of ClpP. ATP-dependent Clp protease proteolytic subunit (Bacillus subtilis (strain 168)), P80244. purified B. subtilis ClpP, FRET peptide cleavage, 20 min. Potency, µM (series often up to 57.5 µM), for the others: top-dose activity change, negative = active. hit rate 1.9% among 340,000. AID 651965, 2013; active = well fitted falling curve with a large enough effect; inconclusive = small, poorly fitted or top-dose-only effect; inactive = no such curve, though single readings can be large or run the other way; note: potency is the fitted concentration of half-maximal effect; the source files actives as falling curves though it sought activators and does not explain the sign; nearly all actives have a fitted effect of over 65% in size; many hits overshoot -100%
# Target sequence (P80244 whole entry, looked up): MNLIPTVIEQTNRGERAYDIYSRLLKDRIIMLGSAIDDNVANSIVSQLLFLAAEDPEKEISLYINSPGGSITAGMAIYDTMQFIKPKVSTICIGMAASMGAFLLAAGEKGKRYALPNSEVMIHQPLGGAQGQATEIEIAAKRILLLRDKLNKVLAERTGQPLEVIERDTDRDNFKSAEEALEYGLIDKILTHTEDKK
#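 Purified B. subtilis ClpP, 10 microg/mL final in Tris/HCl pH8 with KCl, BSA, glycerol and Tween-20, cleaved an Abz/nitrotyrosine-quenched decapeptide. Fluorescence (ex 320, em 430) was read at 0 and 20 min at room temperature. Delta was normalized to 5.8 microM ADEP and DMSO/no-enzyme controls.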
# TRPV1 potentiator: enhances activation of the human vanilloid receptor TRPV1; hit rate 0.02% among 320,000; potentiation, % at 8.33 µM; TRPV1-expressing cells, Fluo-8 calcium influx, capsaicin EC20 potentiation; host cell line not named in the record; control for the full effect not named in the record; Q8NER1; active means potentiation above 80%; inconclusive means 30% to 80%; inactive means below 30%; note: 0% is about no effect
# Target sequence (Q8NER1 whole entry, looked up): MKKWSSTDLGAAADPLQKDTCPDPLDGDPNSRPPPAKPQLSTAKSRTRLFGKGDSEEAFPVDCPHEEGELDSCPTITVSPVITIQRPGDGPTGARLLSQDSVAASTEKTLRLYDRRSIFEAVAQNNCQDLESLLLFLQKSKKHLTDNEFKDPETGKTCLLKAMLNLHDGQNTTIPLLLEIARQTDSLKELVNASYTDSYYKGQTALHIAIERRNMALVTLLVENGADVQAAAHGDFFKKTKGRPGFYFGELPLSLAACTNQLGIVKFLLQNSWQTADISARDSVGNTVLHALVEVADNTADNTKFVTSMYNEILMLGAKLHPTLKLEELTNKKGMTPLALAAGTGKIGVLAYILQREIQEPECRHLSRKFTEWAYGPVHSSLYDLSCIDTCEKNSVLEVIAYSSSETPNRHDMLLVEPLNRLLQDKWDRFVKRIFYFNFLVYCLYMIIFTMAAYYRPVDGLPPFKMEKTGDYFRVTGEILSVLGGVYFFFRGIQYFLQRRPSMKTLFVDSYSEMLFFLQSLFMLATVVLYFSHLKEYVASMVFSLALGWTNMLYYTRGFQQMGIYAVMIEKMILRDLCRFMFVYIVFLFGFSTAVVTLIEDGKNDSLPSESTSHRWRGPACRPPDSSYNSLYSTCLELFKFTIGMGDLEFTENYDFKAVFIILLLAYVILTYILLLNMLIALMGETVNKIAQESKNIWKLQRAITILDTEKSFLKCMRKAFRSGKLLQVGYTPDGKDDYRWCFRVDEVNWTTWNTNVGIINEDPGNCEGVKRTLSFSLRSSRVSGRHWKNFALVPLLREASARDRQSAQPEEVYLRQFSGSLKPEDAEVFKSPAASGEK
#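 Cells expressing TRPV1 were dye-loaded with Fluo-8 and read kinetically: 10 s baseline, 3 min after compound (agonist portion), then 2 min after EC20 capsaicin (allosteric enhancer portion). Calcium-bound dye fluorescence at 480/520 nm.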
# * hit, by the source's call; ? = inconclusive; / = not tested or not shown; & = joins results of further samples; [ ] = dose if it differs, or a comment.
SMILES,gsp antagonist,Menin-MLL FL inh,gsp agonist,TRPML1 blocker,Sfp inh,ClpP mod,TRPV1 potentiator
COc1ccc(-c2csc3ncnc(NCCCO)c23)cc1,-6.4%,-5.0,1.6%,-1.2,7.7%,/,-1.4
O=C(c1c(F)c(F)c(F)c(F)c1F)N(Cc1ccccc1)Cc1ccccc1,-17.5%,2.0,?,-4.9,5.1%,0.2%,4.7
COc1cc(C(c2sc3nc(C)nn3c2O)N2CCc3ccccc3C2)cc(OC)c1OC (stereo not given),4.7%,6.3,-14.2%,-9.4,-13.3%,-5.5%,-7.3
COc1ccc(C(NC(=O)c2ccc(=O)[nH]c2)C(=O)Nc2ccc(C(C)C)cc2)cc1 (stereo not given),-7.0%,7.0,-36.4%[inhibitor],-10.8,-17.0%,/,0.2
COc1cc2ccccc2cc1C(=O)N(CCN(C)C)c1nc2c(F)cc(F)cc2s1,-3.7%,-0.2,4.5%,28.7,-24.4%,-7.8%,-3.0
CCCCCC(=O)Nc1cccc(C2=NOC3(C2)C[C@H](C(N)=O)N(C(=O)CC)C3)c1 (stereo not given in full),11.9%,2.3,1.2%,-14.6,30.1%[activator],-6.4%,20.4
Cc1ccc2nc(SCC(=O)N3CCOCC3)[nH]c2c1,14.4%,1.6,?,-8.1,21.2%,-0.3%,0.3
COc1ccc(NC(=O)c2cc(S(=O)(=O)N3CCCC3)ccc2OC)cc1,-21.4%,-2.0,-4.2%,39.0&15.8,10.7%,-0.1%&3.4%,-23.6
CCOc1ccc(Br)cc1S(=O)(=O)N1CCC(C(N)=O)CC1,5.9%,-2.7,-12.9%[15.4 µM],8.4,13.1%,-0.4%,-5.8
C1CCN(CC2CCCCN2)CC1 (stereo not given),-14.2%,/,-1.4%,-6.5,/,1.3%,/
O=C(NCO)c1cccnc1,3.8%,1.8,/,/,7.8%,1.7%,/
CC(C)Cc1nnc(NC(=O)CCC(=O)N2CCN(Cc3ccccc3)CC2)s1,-1.5%,-0.5,7.5%,-10.0,6.5%,-0.7%,3.9
COc1ccc(C2C(C(C)=O)=C(C)Nc3ncnn32)cc1 (stereo not given),0.7%,0.9,-19.3%,-3.6,29.5%,-1.4%,-11.1
CCC(C)(C)NC(=O)C(c1cccc(OC)c1OC)N(CCC(C)C)C(=O)CCC(=O)Nc1cc(C)on1 (stereo not given),-8.8%,0.0,22.6%,0.2,11.8%,-0.9%,0.8
COc1ccccc1N1CC(C(=O)Nc2nnc(SCc3ccccn3)s2)CC1=O (stereo not given),-17.1%,-2.0,-15.8%,11.4,-13.8%,-5.5%,-2.0
Fc1c(F)c(C(F)(F)F)c(F)c(F)c1N/N=C\c1cccs1,-7.1%,3.5,-28.8%,2.9,14.5%,-0.4%,-1.3
CCN(c1cccc(C)c1)S(=O)(=O)c1ccc(-c2coc(C)n2)cc1,-25.8%,6.8,4.3%,-8.5,8.6%,-0.1%,-9.7
COCCNC(=O)c1cccc(Nc2nc(-c3ccccc3)c3cc(Cl)ccc3n2)c1,-14.5%,0.5,-42.0%[inhibitor],7.2,?,-6.6%,-0.4
CCN(CC)S(=O)(=O)c1ccc(N/N=C(\C)c2ccc3c(c2)OCO3)c([N+](=O)[O-])c1,-0.1%,3.6,13.3%[15.4 µM],1.1,3.9%,1.2%,1.4
C[C@H]1CN([C@@H](C)CO)C(=O)CCCn2nncc2CO[C@@H]1CN(C)Cc1ccncc1,/,/,-26.2%,-6.2,/,-2.8%,/
CN(CC(=O)NCc1ccncc1)S(=O)(=O)c1ccccc1,-0.6%,2.7,-3.3%,-11.5,-0.2%,0.1%,-8.5
Nc1nc(CN2CCN(C(c3ccccc3)c3ccccc3)CC2)nc(Nc2ccccc2)n1,-2.8%,0.2,-3.0%[15.4 µM],-0.8,-7.3%,1.6%,6.5
COc1ccc2ccccc2c1CN1CCCC(CO)C1 (stereo not given),13.1%,0.2,0.8%,-5.2,5.9%,-9.9%,-0.8
COc1ccc(S(=O)(=O)N2CCN(C)CC2)c(C)c1,9.2%,-2.4,6.6%,-16.0,13.7%,2.0%,6.6
C[C@H](CO)NC(=O)[C@H](C)[C@@H]1C[C@@]1(C)[C@@H](NC(=O)OCc1ccccc1)c1ccccc1,?,-1.7&0.2,-16.8%,2.7,5.1%&6.1%,-1.7%,-1.4
CCOc1ccccc1-c1noc(CCC(=O)NC2CCCCC2)n1,1.0%,-1.9,-7.2%,22.8,6.7%,/,2.5
COc1ccc(-c2nsc(SCC(=O)Nc3cc(C)on3)n2)cc1,27.1%,4.6,-29.8%,7.3,15.8µM*,1.3%,2.4
Nc1c(C(=O)Nc2ccc3c(c2)OCCO3)nnn1Cc1ccccc1,5.5%,/,11.8%,3.3,/,1.5%,1.5
CCc1cc(/C(Cc2cscn2)=N\O)c(O)cc1O,12.1%,-0.7,8.2%,-10.7,18.6%,-3.6%,-7.6
COc1ccc(-c2cn(CCc3c[nH]c4ccccc34)nn2)cc1,-15.3%,1.8,/,-1.6,-0.3%,0.2%&0.5%,13.3

# Some entries already given, showing only Sfp inh, gsp agonist and TRPV1 potentiator:
Structure | Sfp inh | gsp agonist | TRPV1 potentiator
COc1ccc(S(=O)(=O)N2CCN(C)CC2)c(C)c1 | 13.7% | 6.6% | 6.6
C[C@H](CO)NC(=O)[C@H](C)[C@@H]1C[C@@]1(C)[C@@H](NC(=O)OCc1ccccc1)c1ccccc1 | 5.1%&6.1% | -16.8% | -1.4
CCOc1ccccc1-c1noc(CCC(=O)NC2CCCCC2)n1 | 6.7% | -7.2% | 2.5
COc1ccc(-c2nsc(SCC(=O)Nc3cc(C)on3)n2)cc1 | 15.8µM* | -29.8% | 2.4
Nc1c(C(=O)Nc2ccc3c(c2)OCCO3)nnn1Cc1ccccc1 | / | 11.8% | 1.5

# (cont.)
SMILES,gsp antagonist,Menin-MLL FL inh,gsp agonist,TRPML1 blocker,Sfp inh,ClpP mod,TRPV1 potentiator
COc1ccc(-c2cc(=O)oc3cc(OC(=O)C4CCCCC4)ccc23)cc1,-1.6%,-0.4,-5.8%,8.5,-2.1%,-13.8%,2.1
NC(=O)C1CCN(C2=C(Cl)C(=O)c3ccccc3C2=O)CC1,-5.6%,/,?,-14.3,17.8µM*,1.9%,-5.5
O=C(NNc1nc2ccccc2s1)Nc1ccc(F)cc1,2.0%,-0.8,7.2%,-3.5,100µM*,-2.2%,9.8
CC(NC(=O)c1ccc(CS(C)(=O)=O)cc1)c1cccc2ccccc12 (stereo not given),-7.3%,-1.3,-1.1%[15.4 µM],7.9,10.7%,/,10.2
Cc1ccccc1C(=O)NCc1nnc(SCC(=O)N2CCN(c3ccccc3)CC2)n1C,-5.0%,4.4,-11.5%,-5.5,10.5%,-0.9%,12.5
Nn1c(COc2cccc(Br)c2)nnc1SCC(=O)NCC1CCCO1 (stereo not given),6.3%,/,12.5%,26.9,/,-1.3%,3.0
C/C(CCN1CCc2nc(-c3ccccc3)c(-c3ccccc3)cc2C1)=N\O[C@H](C)c1cn([C@H](CO)Cc2ccccc2)nn1,/,0.4,/,/,3.5%,/,9.5
Cc1ccc(S(=O)(=O)N2CCCC2C(=O)NCCc2ccccc2)cc1 (stereo not given),-36.2%,1.3,-8.0%[15.4 µM],-15.6,7.9%,-26.4%,-18.3
Brc1c(CSc2nncn2-c2ccccc2)nc2ncccn12,17.4%,-2.6,22.1%,-7.0,15.3%,10µM*,-3.4
Cc1cc(NC(=O)CCN2C(=O)/C(=C\c3ccccc3)SC2=S)no1,11.9%,1.0,-8.8%[15.4 µM],28.7,9.7%,/,/
COc1ccc(N2CCN(S(=O)(=O)c3cc4c(cc3C)NC(=O)CO4)CC2)cc1,6.0%,-5.0,-40.8%[inhibitor],5.0,-0.7%,1.2%,11.1
COC(=O)/C(=C\c1cc(OC)c(OC)c(OC)c1)c1nc2ccccc2[nH]1,15.3%,-6.4,-4.1%[15.4 µM],10.8,7.7%,-0.5%,-18.1
O=C(COC(=O)c1ccc(Br)c(S(=O)(=O)N2CCOCC2)c1)NCC1CCCO1 (stereo not given),-7.8%,-4.7,16.4%,-14.5,9.0%,1.9%,23.2
CCN(CC)CCOC(=O)c1cccc(Cl)c1,6.7%,3.8,13.2%,24.5,4.4%,-1.8%,1.4
CCCn1c(SCC(=O)N2CCN(C(=O)c3ccco3)CC2)nc2ccccc2c1=O,-8.8%,-5.7,3.4%,22.8,-0.5%,/,-5.1
Cc1csc2c(N3CCN(S(=O)(=O)c4ccc(Cl)cc4)CC3)ncnc12,2.3%,4.3,3.4%,0.6,14.0%,/,-2.6
CC(C(=O)N=c1sc2ccccc2n1C)N1C(=O)C2CC=CCC2C1=O (stereo not given),-1.6%,0.4,1.4%,2.6,-6.7%,-4.1%,?
CCCn1c(=N)n(CC(O)COc2cccc(C)c2)c2ccccc21 (stereo not given),18.7%,2.6,-15.6%,-13.7,-1.7%,1.0%,-12.9
CCOC(=O)C(C)Oc1c(Br)cc(C2NC(=O)NC(C)=C2C(C)=O)cc1OCC (stereo not given),-0.1%,-3.6,10.7%,14.7,-3.4%,-0.9%,11.7

# Marked active in Sfp inh, of those listed so far:
structure | Menin-MLL FL inh | gsp agonist | TRPML1 blocker | Sfp inh
COc1ccc(-c2nsc(SCC(=O)Nc3cc(C)on3)n2)cc1 | 4.6 | -29.8% | 7.3 | 15.8µM*
NC(=O)C1CCN(C2=C(Cl)C(=O)c3ccccc3C2=O)CC1 | / | ? | -14.3 | 17.8µM*
O=C(NNc1nc2ccccc2s1)Nc1ccc(F)cc1 | -0.8 | 7.2% | -3.5 | 100µM*

# Screening results (PubChem BioAssay)
